High-throughput results deposited in PubChem BioAssay by National Center for Advancing Translational Sciences (NCATS).
NS1 inh = qHTS Assay for Inhibitors of Influenza NS1 Protein Function; hit rate 0.4% among 270,000; S. cerevisiae slowed by influenza A NS1, growth recovery by OD600; Potency, µM (titrated, usually from 46.1 µM), without a hit: at the highest dose activity, positive = more growth; also: actives are rising curves; nearly all actives have a fitted effect of over 50% in size
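S. cerevisiae expressing influenza A NS1, grown in glucose, washed, then diluted 1:100 into pH 6.0 -URA galactose medium with 23 nl compound. Growth recovery read as OD600; NS1-free strain serves as control.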
Cruzain Triton = qHTS Assay for Promiscuous and Specific Inhibitors of Cruzain (with detergent) | hit rate 0.43% among 200,000 | Potency, µM, for inactives: max response, negative = inhibition, hits mostly inhibitors | purified cruzain, Z-FR-AMC fluorescence, 0.01% Triton; active = well fitted curve in the direction sought with a large enough effect; inconclusive = small, poorly fitted or top-dose-only effect, or another doubt; inactive = no such curve, though single readings can be large; an effect the other way counts as inactive or inconclusive;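 also: plate controls were neutral wells for no effect and buffer without enzyme for full effect; nearly all actives have a fitted effect of over 40% in size; top concentration of the series not given in the record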
Target sequence (P25779 123-467 limits assumed): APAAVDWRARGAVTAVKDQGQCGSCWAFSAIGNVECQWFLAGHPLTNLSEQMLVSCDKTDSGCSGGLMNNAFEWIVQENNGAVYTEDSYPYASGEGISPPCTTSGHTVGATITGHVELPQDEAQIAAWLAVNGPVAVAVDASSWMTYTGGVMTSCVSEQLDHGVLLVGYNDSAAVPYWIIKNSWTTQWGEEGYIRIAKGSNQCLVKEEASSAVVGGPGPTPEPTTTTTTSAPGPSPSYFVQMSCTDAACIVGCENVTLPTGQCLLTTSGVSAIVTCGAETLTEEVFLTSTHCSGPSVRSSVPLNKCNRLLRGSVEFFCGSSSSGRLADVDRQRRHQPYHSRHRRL
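Read-out: AMC fluorescence (360 nm excitation, 450 nm emission), four reads over 2 min, first-to-third difference used. Conditions: cruzain 1.5 nM, Z-FR-AMC 2 uM, pH 5.5 acetate, 5 mM DTT, 0.01% Triton X-100.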
Lassa entry inh = qHTS for Inhibitors of binding or entry into cells for Lassa Virus; hit rate 1.2% among 300,000; Lassa virus pseudotype entry inhibition, cell reporter; control for the full effect not named in the record; Potency, µM (series often up to 37.9 µM), inactives show top-dose activity change, negative = inhibition, actives largely listed as inhibitors; AID 540256, 2011; active means well fitted inhibition curve with a large enough effect; inconclusive means small, poorly fitted or top-dose-only effect, or effect the other way; inactive means flat fitted curve, though single readings scatter; tested in HEK293 cells; also: % is scaled to controls: 0 for no effect and ±100 for the full control effect; nearly all actives have a fitted effect of over 50% in size; luciferase read-out
Cruzain inh noDet = qHTS Assay for Promiscuous and Specific Inhibitors of Cruzain (without detergent); Cruzipain (Trypanosoma cruzi), P25779; purified cruzain, Z-FR-AMC fluorescence, no detergent; Potency, µM, without a hit: max response, negative = inhibition, most hits filed as inhibitors; hit rate 2.3% among 200,000; active = well fitted curve in the direction sought with a large enough effect; inconclusive = small, poorly fitted or top-dose-only effect, or another doubt; inactive = no such curve, though single readings can be large; an effect the other way counts as inactive or inconclusive;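 also: plate controls were enzyme without inhibitor for no effect and buffer without enzyme for full effect; nearly all actives have a fitted effect of over 40% in size; top concentration of the series not given in the record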
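Purified cruzain at 1.5 nM, pre-incubated 15 min with compound at room temperature in 100 mM sodium acetate pH 5.5, 5 mM DTT, 0.00005% Triton X-100. Reaction started with 2 uM Z-FR-AMC; AMC fluorescence increase over 60 s gives rate.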
RE007 growth inh = qHTS Assay for Inhibitors of the HIV-1 protein Vpr. S. pombe RE007 Vpr strain, BacTiter-Glo ATP luminescence, 24 h; control for the full effect not named in the record. Potency, µM (doses to about 92.2 µM), without a hit: at the top dose activity change, negative = less growth. hit rate 0.21% among 360,000. AID 651644, 2012; active = well fitted falling curve with a large enough effect; inconclusive = small, poorly fitted or top-dose-only effect; inactive = no such curve, though single readings can be large or run the other way;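 also: % is scaled to controls: 0 for no effect and ±100 for the full control effect; nearly all actives have a fitted effect of over 50% in size; the assay follows cell death caused by Vpr and the record does not say whether a fall means rescue or toxicity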
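Fission yeast RE007 carrying one integrated HIV-1 vpr copy, seeded at OD 0.01 in PMG+AL medium with 23 nL pinned compound. Grown 24 h at 30 degrees; viability read by BacTiter-Glo luminescence after 5 min.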
Marburg entry inh = qHTS for inhibitors of binding or entry into cells for Marburg Virus | hit rate 1.8% among 300,000 | Marburg virus pseudotyped entry inhibition, cell reporter; control for the full effect not named in the record; about a third of the inactives were read at about 46 µM | Potency, µM (doses to about 37.8 µM), for the others: at the top dose activity change, negative = inhibition, most hits filed as inhibitors; active = well fitted inhibition curve with a large enough effect; inconclusive = small, poorly fitted or top-dose-only effect, or effect the other way; inactive = flat fitted curve, though single readings scatter; tested in HEK293 cells; about a fifth of its hits are not listed in these tables; also: % is scaled to controls: 0 for no effect and ±100 for the full control effect; luciferase read-out
SARS PLP yeast = qHTS of Yeast-based Assay for SARS-CoV PLP | S. cerevisiae expressing SARS-CoV PLpro, growth rescue; control for the full effect not named in the record | hit rate 0.19% among 330,000 | Potency, µM (titrated, usually from 32.9 µM), for inactives: at the highest dose activity, positive = growth rescue; also: 0% is about no effect; nearly all actives have a fitted effect of over 55% in size; growth read by luminescence after 48 h
2A StopGo = High Throughput Screening for Foot and Mouth Disease Virus Antivirals; human cells with a luciferase reporter of 2A StopGo recoding; control for the full effect not named in the record; Potency, µM (top dose mostly 57.9 µM), without a hit: top-dose signal change, negative = less light; hit rate 1.2% among 410,000; AID 1159524, 2015; active = well fitted falling curve with a large enough effect; inconclusive = small, poorly fitted or top-dose-only effect; inactive = no such curve, though single readings can be large or run the other way; tested in HEK293T cells; also: % is scaled to controls: 0 for no effect and ±100 for the full control effect; nearly all actives have a fitted effect of over 45% in size; luciferase light after 4 h
Starred values were filed as active, the others as inactive; [ ] = another dose, or the depositor's remark. Unless noted, calls follow the shape of the dose curve; as a rule, active means well fitted rising curve with a large enough effect; inconclusive means small, poorly fitted or top-dose-only effect; inactive means no such curve, though single readings can be large or run the other way. Potency is read from the fitted curve at half-maximal effect. Compounds as they come; 4.7% or so of the library scored in one or more.

What do the screens show for `O=C(CSc1nnc(NC(=O)c2ccco2)s1)Nc1ccc2c(c1)OCCO2`?
NS1 inh: 6%; Lassa entry inh: 23%[46.1 µM]; RE007 growth inh: 10%; Marburg entry inh: 11%[46.1 µM]; SARS PLP yeast: 0%; 2A StopGo: 19%

How did CCSc1nnc(NC(=O)C(C)Sc2nc3ccccc3[nH]2)s1 (centres undefined) do in these assays?
NS1 inh: -10%; Cruzain Triton: -12%; Lassa entry inh: 29%; Cruzain inh noDet: 3%; RE007 growth inh: 2%; Marburg entry inh: 14%; SARS PLP yeast: 22%; 2A StopGo: -17%

Results for CCOC(=O)C1CCCN(C(=O)CCCOc2cc(=O)n(C)c3ccccc23)C1 (centres undefined) ?
NS1 inh: -6%; Cruzain Triton: 1.9%; Lassa entry inh: 2%; Cruzain inh noDet: -2%; RE007 growth inh: 13%; Marburg entry inh: 19%; SARS PLP yeast: 6%; 2A StopGo: 25%

Results for CCOc1ccccc1CN1CCNC(=O)C1CC(=O)NCCC1=CCCCC1 (centres undefined) ?
NS1 inh: 17%; RE007 growth inh: -8%; SARS PLP yeast: -4%; 2A StopGo: -13%

What do the screens show for `Cc1ccc(-c2nn(-c3ccccc3)c3c2cnc2ccccc23)cc1C`?
Cruzain Triton: -1.2%; Lassa entry inh: inconclusive; Cruzain inh noDet: -5%; Marburg entry inh: 1%[46.1 µM]; 2A StopGo: -19%

What do the screens show for `COc1ccc(OC)c(NC(=O)CCN2CCN(CCO)CC2)c1`?
NS1 inh: -1%; RE007 growth inh: -13%; SARS PLP yeast: 0%; 2A StopGo: -6%

What do the screens show for `Cc1cc(F)ccc1S(=O)(=O)N1CCCOC1CNC(=O)C(=O)NCCC1=CCCCC1` (centres undefined)?
NS1 inh: -4%; Cruzain Triton: -6.8%; Lassa entry inh: 4%; Cruzain inh noDet: 26%; RE007 growth inh: 13%; Marburg entry inh: inconclusive; SARS PLP yeast: 7%; 2A StopGo: 2%

Results for COc1ccc2c(c1OC)C(=O)N1c3ccccc3C(=O)N(c3ccc(F)cc3)C21 (centres undefined) ?
NS1 inh: -1%; Cruzain Triton: 0.0%; Lassa entry inh: -26%; Cruzain inh noDet: -7%; RE007 growth inh: -11%; Marburg entry inh: -18%; SARS PLP yeast: -1%; 2A StopGo: inconclusive

Results for CCOC(=O)c1ccc(NC(=O)CSc2ccc(-c3ccncc3)nn2)cc1 ?
Lassa entry inh: 10%[46.1 µM]; RE007 growth inh: 2%; Marburg entry inh: -1%[46.1 µM]; SARS PLP yeast: 1%; 2A StopGo: -12%

How did Cn1c(=O)c2c(nc(Oc3cccc(Br)c3)n2C)n(C)c1=O do in these assays?
NS1 inh: -45%; RE007 growth inh: 6%; SARS PLP yeast: 12%; 2A StopGo: -10%

How did CCOC(=O)/C=C/C(=O)OCc1csc(CC(=O)Nc2ccccc2C)n1 do in these assays?
NS1 inh: 6%; RE007 growth inh: -12%; SARS PLP yeast: 0%; 2A StopGo: -4%

Results for Cc1cccc(C(=O)NCCNC(=O)c2cccnc2)c1 ?
NS1 inh: 1%; Lassa entry inh: -6%[46.1 µM]; RE007 growth inh: 10%; Marburg entry inh: 12%[46.1 µM]; SARS PLP yeast: 0%; 2A StopGo: 8%

Results for CC(=O)NC(CC(=O)OCC(=O)Nc1ccc2c(c1)OCO2)c1ccccc1 (centres undefined) ?
NS1 inh: 5%; Lassa entry inh: -5%[46.1 µM]; RE007 growth inh: 3%; Marburg entry inh: -2%[46.1 µM]; SARS PLP yeast: -2%; 2A StopGo: -30%

What do the screens show for `CCOc1ccc(NC(=O)CN2CCc3ccccc3C2)cc1`?
NS1 inh: -22%; Lassa entry inh: inconclusive; RE007 growth inh: -18%; Marburg entry inh: 0%; SARS PLP yeast: 1%; 2A StopGo: 26%

Results for O=c1c2ccccc2[nH]c(=S)n1CCCn1ccnc1 ?
NS1 inh: 8%; RE007 growth inh: -6%; SARS PLP yeast: 0%; 2A StopGo: 19%

What do the screens show for `COc1ccc(CCN2CCC(CNC(=O)c3cnn(-c4cccc(Cl)c4)c3C3CCN(C(=O)OC(C)(C)C)CC3)CC2)cc1`?
Cruzain Triton: -0.9%; Lassa entry inh: -24%[46.1 µM]; Cruzain inh noDet: -1%; 2A StopGo: -6%

What do the screens show for `COc1ccc(-c2nn(-c3ccccc3)cc2CNCc2cccnc2)c(F)c1`?
NS1 inh: 0%; Lassa entry inh: 0%; RE007 growth inh: 1%; Marburg entry inh: 4%; SARS PLP yeast: -1%; 2A StopGo: 30%

Results for CN=C1SC(CC(=O)Nc2ccc(C(=O)O)cc2)C(=O)N1C (centres undefined) ?
NS1 inh: 9%; Cruzain Triton: 1.6%; Lassa entry inh: 7%; Cruzain inh noDet: -9%; RE007 growth inh: 42%; Marburg entry inh: 1%; SARS PLP yeast: 1%

Results for CCOc1ncnc2c1[nH]c1ccccc12 ?
NS1 inh: -33%; Lassa entry inh: -4%; RE007 growth inh: 5%; Marburg entry inh: inconclusive; SARS PLP yeast: -7%; 2A StopGo: -16%

How did CCOC(=O)Cn1c(=O)n(C2CCCCC2)c2nc(-c3ccc(OC)cc3)nc(C(N)=O)c21 do in these assays?
Cruzain Triton: -1.6%; Lassa entry inh: -5%[46.1 µM]; Cruzain inh noDet: -10%; 2A StopGo: -24%

What do the screens show for `CCN(CC)C(=O)[C@H]1CC(CC(=O)NC/C=C(\C)CCC=C(C)C)C(=O)N2CCc3c([nH]c4ccc(OC)cc34)[C@]12C` (some centres undefined)?
RE007 growth inh: -9%; Marburg entry inh: 1%; SARS PLP yeast: -13%; 2A StopGo: 0%

What do the screens show for `CCOC(=O)C1C2C=CC3(CN(c4cccc(Cl)c4)C(=O)C13)O2` (centres undefined)?
NS1 inh: 3%; Cruzain Triton: 4.9%; Cruzain inh noDet: inconclusive; RE007 growth inh: -4%; Marburg entry inh: -2%; SARS PLP yeast: -7%; 2A StopGo: -21%

Results for Cc1cc(=O)oc2ccc(OCC(=O)N(Cc3ccc(F)cc3)Cc3ccco3)cc12 ?
NS1 inh: -44%; Cruzain Triton: -12%; Lassa entry inh: -25%; Cruzain inh noDet: -2%; RE007 growth inh: -15%; Marburg entry inh: inconclusive; SARS PLP yeast: -13%; 2A StopGo: 20µM*

What do the screens show for `O=C(CSc1nc(Nc2ccccc2)nc(N2CCOCC2)n1)Nc1ccccc1Cl`?
NS1 inh: -81%; Cruzain Triton: -5.9%; Lassa entry inh: 4.6µM*; Cruzain inh noDet: -18%; RE007 growth inh: 8%; Marburg entry inh: inconclusive; SARS PLP yeast: 1%

How did Cc1ccccc1OCC(=O)Nc1ccc(C(=O)OCc2cc(=O)n3c(C)csc3n2)cc1 do in these assays?
Cruzain Triton: -2.1%; Lassa entry inh: 11%[46.1 µM]; Cruzain inh noDet: -3%; 2A StopGo: 4%

How did COc1cc(/C=N/NC(=O)COc2ccccc2[N+](=O)[O-])ccc1OC(=O)c1ccco1 do in these assays?
NS1 inh: -2%; Cruzain Triton: -5.9%; Lassa entry inh: 1%; Cruzain inh noDet: inconclusive; RE007 growth inh: -17%; Marburg entry inh: inconclusive; SARS PLP yeast: 11%; 2A StopGo: inconclusive

What do the screens show for `COc1ccc(NC(=O)C(C)n2nc(-c3cc(C)ccc3C)c3c(c2=O)CCCC3)cc1` (centres undefined)?
Cruzain Triton: -5.7%; Lassa entry inh: -17%[46.1 µM]; Cruzain inh noDet: 2%; Marburg entry inh: inconclusive; 2A StopGo: -26%

How did O=C(CCSCCC(=O)NCC1CCCO1)NCC1CCCO1 (centres undefined) do in these assays?
NS1 inh: 0%; Cruzain Triton: 1.2%; Lassa entry inh: 6%; Cruzain inh noDet: -2%; RE007 growth inh: -12%; Marburg entry inh: 1%; SARS PLP yeast: 0%; 2A StopGo: 9%

Results for COc1ccc(N2CCN(C3CCCN(Cc4ccccc4OCCO)C3)CC2)cc1 (centres undefined) ?
NS1 inh: 5%; RE007 growth inh: -12%; SARS PLP yeast: 0%; 2A StopGo: -4%

How did O=C(NCc1ccc(-c2csnn2)cc1)c1cccs1 do in these assays?
NS1 inh: -2%; Lassa entry inh: 3%[46.1 µM]; RE007 growth inh: 0%; Marburg entry inh: 1%[46.1 µM]; SARS PLP yeast: 1%; 2A StopGo: -4%

Results for Cc1cc(C)nc(SCC(=O)Nc2ccc(S(=O)(=O)Nc3ncccn3)cc2)n1 ?
NS1 inh: -47%; Lassa entry inh: -2%[46.1 µM]; RE007 growth inh: 26%; Marburg entry inh: 12%[46.1 µM]; SARS PLP yeast: -6%; 2A StopGo: 9%

Results for COc1ccc(/C(N)=N/OC(=O)Cc2ccc(C)cc2)cc1 ?
NS1 inh: -8%; Cruzain Triton: -1.4%; Lassa entry inh: -5%; Cruzain inh noDet: 3%; RE007 growth inh: 9%; Marburg entry inh: -14%; SARS PLP yeast: -44%; 2A StopGo: 46%[activator]

Results for COc1ccc2nc(NC(=O)CSC(C)C(=O)Nc3cc(C)on3)sc2c1 (centres undefined) ?
Lassa entry inh: 25%; RE007 growth inh: 9%; Marburg entry inh: inconclusive; SARS PLP yeast: 2%; 2A StopGo: 17%

How did CNC(=O)CN(Cc1ccccc1)S(=O)(=O)c1ccc(Cl)cc1 do in these assays?
NS1 inh: 1%; RE007 growth inh: -1%; SARS PLP yeast: 4%; 2A StopGo: -15%

What do the screens show for `CCOC(=O)c1c(C)c(-c2ccccc2)n(CC(=O)NCc2ccccc2)c1C`?
Cruzain Triton: 0.7%; Cruzain inh noDet: -15%; Marburg entry inh: -4%[46.1 µM]; 2A StopGo: -7%
